Source: PubChem BioAssay
Sa RN4220 lethal: kills Staphylococcus aureus RN4220. AID 1259311. S. aureus RN4220 growth, OD600, 16 h. inhibition, % (no concentration beside the values). actives 0.33% (n = 330,000);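 active means z-score of -3 or lower and OD600 up to 0.18 on both plates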;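 further: plate controls were untreated cells for no effect and reference antibiotic for full effect; stock transfer was 100 nL into about 80 µL; one replicate is shown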
ugtP null kill: growth inhibition of S. aureus ugtP deletion strain; S. aureus RN4220 ugtP deletion, OD600 growth, 16 h; some inactives read as strong as hits; growth inhibition, % (test concentration not listed); actives 0.54% (n = 330,000);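 active means z-score under -3 and OD600 up to 0.15 on both plates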;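 further: plate controls were untreated wells for no effect and antibiotic for full effect; wells of about 80 µL received 100 nL stock; the first replicate is given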
PrP 5UTR inh: suppresses PrP 5' UTR mRNA reporter expression; AID 488862; actives 0.35% (n = 340,000); cell-based PrP 5' UTR mRNA reporter, plate reader; inhibition, % (test concentration not listed);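 active means every replicate at 50% or more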;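 further: 0 = median of the neutral control wells; tested in H4 reporter cells; numbers are from one replicate; inactives centre near -14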
Bead autofluor: flagged as autofluorescent in microsphere protease counterscreen; compound autofluorescence counterscreen, microsphere flow cytometry; hits give high values; fluorescence intensity (concentration not given with the values); actives 3.1% (n = 360,000);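 active means at least 3 SD above the mean of all compounds, about 16000 in these data; inconclusive means too few beads counted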;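 further: 100 nL of 1 mM stock went into each well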
BJeLR lethal: BJeLR cell viability loss. BJeLR (HRASV12) viability, CellTiter-Glo ATP luminescence, 48 h; reference of the scale not given here. inhibition, % (no concentration beside the values). actives 0.17% (n = 300,000). AID 1554;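 active means replicate mean above 50%; inconclusive means above 50% but judged a plate artefact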;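 further: 50 nL library stock added to about 25 µL; numbers are from one replicate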
Mtb hypoxia inh: reduces hypoxia-regulated biosensor signal in M. tuberculosis; M. tuberculosis hypoxia-regulated fluorescent reporter, fluorescence; fluorescence inhibition, % (no concentration beside the values); actives 0.1% (n = 300,000); AID 1159583;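 active means 35 to 45% if threefold the growth effect, above 45% if 1.5-fold the growth effect; inactive means the rest, general growth blockers included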;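 further: wells of about 50 µL received 100 nL stock; 0% = vehicle wells and 100% = reference inhibitor wells; whole bacteria with a GFP reporter of the hypoxia response; strong numbers were not always called active; many hits fall short of the cut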
Mtb hypoxia inh growth: second read-out of Mtb hypoxia inh, no call of its own (marks repeat the call); growth inhibition, %; measured here: M. tuberculosis growth (absorbance);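 0% = vehicle and 100% = reference antibiotic; read after six days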
Active calls of the source: *; u = inconclusive; x = not tested or not shown. An unsorted share of the library; about 4% have a hit in one of these screens.

smiles,Mtb hypoxia inh,Bead autofluor,Mtb hypoxia inh growth,Sa RN4220 lethal,ugtP null kill,PrP 5UTR inh,BJeLR lethal
CCC(C)C(NC(=O)C1CCC(C)CC1)C(=O)NCCc1ccc(S(N)(=O)=O)cc1 (configuration not stated),0.2,3104,-11.3,4.4,-0.7,6.2,-0.2
Cn1cccc1CC(=O)NNC(=O)Nc1ccccc1F,7.9,3481,3.9,4.2,6.2,-39.7,x
CCc1nonc1NC(=O)COc1ccc(Cl)c(C)c1,-7.1,5965,1.0,1.4,-4.6,-9.3,3.5
COc1ccc2cc3c(N)nn(C(=O)Cc4ccc(Cl)cc4)c3nc2c1,-2.1,5767,1.8,1.4,0.1,-9.6,7.3
CCCC1Oc2ccccc2C(=O)N(CC(=O)c2ccc3c(c2)OCCO3)C1=O (configuration not stated),1.3,6254,1.0,1.7,11.5,-36.9,6.9
Cc1oc(-c2ccccc2F)nc1CS(=O)(=O)CC(=O)NCCCN(C)C1CCCCC1,0.1,17008*,11.5,5.8,-1.3,-19.1,-2.9
Cc1occc1C(=O)NN=Cc1ccc[nH]1,-0.3,x,-7.3,0.9,3.3,x,x
Cc1cc(C)nc(SCCN(C)C)n1,-10.5,2686,-6.9,-3.3,-4.6,-18.1,0.7
CCCC(=O)NNC(=O)CCC(=O)NCc1ccccc1,3.9,11157,-0.4,2.3,12.2,-17.4,18.9
O=S(=O)(c1ccc(-n2cnnn2)cc1)N1CCC(N2CCCCC2)CC1,17.1,3271,7.7,9.0,1.4,-9.1,-8.6
CC(NC(=O)c1cc2sccc2n1C)c1ccc2c(c1)OCCO2 (configuration not stated),8.2,10807,20.8,5.5,-5.9,-22.1,3.2
CC(=NNC(=O)Cc1ccccc1Cl)c1cccnc1,11.1,x,4.4,1.0,2.8,x,x
COc1ccc(OCC(=O)N2CCN(C(C)C)CC2)cc1,5.3,2553,3.1,6.3,7.8,3.3,3.0
CCC1(CC)Cc2ccccc2-c2nc(NCCCO)[nH]c(=O)c21,1.2,3148,3.7,8.8,16.0,-18.0,-4.7
CSc1ccc(Cl)c(C(=O)OCC(=O)NC2CC2)c1,x,4997,x,0.8,7.0,-19.4,-3.0
CCc1sc(-c2ccccc2)nc1C(=O)OC,-7.5,u,-8.8,2.6,-2.7,-25.2,-3.8
CC1CCC/C(=C\Nc2ccc3c(c2)OCO3)C1=O (configuration not stated),-3.1,22454*,-6.9,-1.6,-12.0,-26.0,-2.8
Cc1cc(C)cc(NC(=O)C2CCN(S(=O)(=O)c3ccc4[nH]c(=O)ccc4c3)CC2)c1,3.0,6098,4.7,-10.4,5.1,-12.5,-9.0
C=CCc1c(C)nc(SC)nc1Nc1ccc(C(=O)O)cc1,-0.2,5278,7.2,4.9,0.7,-28.6,-7.6
Cc1onc(-c2c(F)cccc2Cl)c1C(=O)OCC(=O)NC(N)=O,5.1,3825,2.5,58.4,3.5,5.2,2.1
O=C(C1Cc2ccccc2CN1S(=O)(=O)c1cccs1)N1CCCCCC1 (configuration not stated),x,3050,x,5.9,1.9,-12.4,2.6
CCOC(=O)c1ccc(NC(=O)CN2C(=O)CNC2=O)cc1,-9.1,23272*,-10.7,-3.6,-2.6,-73.8,1.2
Cc1cc(C(=O)N2CCC(C(F)(F)F)n3nccc32)on1 (configuration not stated),x,2614,x,3.9,-0.4,-6.5,-5.0
COC(=O)C1CC(C(=O)OC)C2C(C(=O)OC)CC(C(=O)OC)C12 (configuration not stated),12.8,2860,6.1,3.8,6.8,-18.6,x
O=C(Cc1ccc(Br)cc1)Nc1ncc([N+](=O)[O-])s1,-3.2,4106,7.3,37.4,74.8,-38.7,0.2
NS(=O)(=O)c1c(Sc2ccccc2C(=O)O)ccc2ccccc12,1.1,x,4.5,6.6,4.3,-11.7,-4.3
Oc1ccccc1N1CCN(c2ccc3ccccc3n2)CC1,2.5,5506,-2.3,1.7,12.2,-98.6,-10.3
CCOC(=O)Cc1csc(SCC(=O)NC2CCC(C)CC2)n1 (configuration not stated),-2.3,4274,1.0,-3.3,-1.9,-5.9,9.4
CCN1CCN(C(=O)COc2ccc(S(=O)(=O)N(C)Cc3ccccc3)cc2)CC1,8.0,15113,1.9,4.5,6.5,-16.8,9.6
CNc1ccccc1C(C)(C)c1cc(-c2cc(C)cc(C)c2)no1,x,2148,x,x,x,-20.8,-8.8
O=C(COc1ccc2ccccc2c1)N1CCN(C(=O)c2ccco2)CC1,8.7,1905,-2.4,0.4,-3.8,-0.8,5.1
CN(C(=O)COC(=O)/C=C/c1cccs1)c1c(N)n(Cc2ccccc2)c(=O)[nH]c1=O,-13.3,u,-10.1,-0.1,1.2,-26.0,-5.0
COc1ccc2nc(NCCNC(=S)NCCCN3CCOCC3)c(C#N)cc2c1,-2.8,5260,10.8,0.7,1.5,78.4*,-5.8
CCOc1cc(C(=O)NC(=S)Nc2ccc(Cl)c(C(=O)O)c2)cc(OCC)c1OCC,6.1,4249,-2.6,4.2,-5.8,-51.2,6.6
Cn1c(NCc2ccco2)nc2c1c(=O)n(Cc1ccc(Cl)cc1)c(=O)n2C,x,2388,x,-2.2,-5.8,-6.1,-1.6
CC1Cc2ccccc2N1C(=O)CN1C(=O)NC2(CCCCC2)C1=O (configuration not stated),6.8,3960,4.8,6.1,4.7,-18.0,x
CCCCCC[n+]1c(-c2ccccc2)csc1Nc1ccccc1,3.1,2091,4.9,-0.2,88.4*,-14.4,9.7
CS(=O)(=O)C1=NSC2=NC(=O)/C(=C\c3ccc(OS(=O)(=O)c4ccccc4)cc3)C(=N)N21,-6.6,4452,2.9,-3.7,-9.8,-14.0,13.2
CCOC(=O)C1C(=O)NC(N2CCN(c3ccccc3)CC2)=NC1c1ccco1 (configuration not stated),8.4,23350*,11.8,6.3,4.9,-28.7,-5.7
O=C(O)c1ccc2c3n(nc2c1)-c1ccc(Cl)cc1CO3,7.1,x,4.3,-2.8,2.8,x,17.3
CCc1cc(=O)oc2cc3occ(-c4ccc(OC)c(F)c4)c3cc12,10.8,2308,4.7,22.1,18.9,0.3,15.7
CCC(C)[C@H](NC(=O)C1(c2ccccc2)CCN(C(=O)OC(C)(C)C)CC1)C(=O)N[C@@H](C(=O)O)c1ccccc1 (some centres not stated),x,5898,x,4.5,-10.7,-30.1,-2.4
COc1ccccc1C(=O)Nc1ccccc1C(=O)N1C(C)CCCC1C (configuration not stated),3.9,2187,-4.2,1.1,2.4,-9.2,0.7
CC(=O)c1cc(-c2ccccc2)n(CCC(=O)NC2CCCC2)c1C,-16.9,2099,-9.7,0.3,-3.5,-19.0,-11.5
COC(=O)C1CCN(S(=O)(=O)c2ccc(Br)s2)CC1,-6.8,3905,-0.3,4.1,4.5,-10.2,x
CCCCc1ccc(-n2c(Cc3cccs3)n[nH]c2=S)cc1,4.5,2495,8.2,7.6,34.6,-10.2,3.7
CC(C)CC(C(=O)Nc1ccc2c(c1)OCCO2)N1C(=O)c2ccccc2C1=O (configuration not stated),x,3688,x,5.1,3.8,-14.9,3.3
CC(C)=CCC(C)(C)/C=N/NC(N)=O,x,5425,x,x,x,-9.4,4.1

A stretch from further up:
smiles,Mtb hypoxia inh,Bead autofluor,Mtb hypoxia inh growth,Sa RN4220 lethal,ugtP null kill,PrP 5UTR inh,BJeLR lethal
O=C(O)c1ccc2c3n(nc2c1)-c1ccc(Cl)cc1CO3,7.1,x,4.3,-2.8,2.8,x,17.3
CCc1cc(=O)oc2cc3occ(-c4ccc(OC)c(F)c4)c3cc12,10.8,2308,4.7,22.1,18.9,0.3,15.7

In the list so far, two have bromine.
smiles,Mtb hypoxia inh,Bead autofluor,Mtb hypoxia inh growth,Sa RN4220 lethal,ugtP null kill,PrP 5UTR inh,BJeLR lethal
O=C(Cc1ccc(Br)cc1)Nc1ncc([N+](=O)[O-])s1,-3.2,4106,7.3,37.4,74.8,-38.7,0.2
COC(=O)C1CCN(S(=O)(=O)c2ccc(Br)s2)CC1,-6.8,3905,-0.3,4.1,4.5,-10.2,x

Continued:
smiles,Mtb hypoxia inh,Bead autofluor,Mtb hypoxia inh growth,Sa RN4220 lethal,ugtP null kill,PrP 5UTR inh,BJeLR lethal
O=C1C2C3C=CC(C3)C2C(=O)N1/N=C/c1cc(Br)cc([N+](=O)[O-])c1O (configuration not stated),x,2918,x,x,x,-1.0,-4.4
O=C(c1ccco1)N1CCN(C(=O)c2cc(-c3ccccc3)nc3ccccc23)CC1,-0.4,8830,2.6,0.9,5.1,-8.5,-9.9
CCOC(=O)N1CCN(c2c(N3CCN(c4ccccc4OC)CC3)c(=O)c2=O)CC1,2.4,4400,-3.2,5.1,-1.8,6.2,4.1
COCc1ccc(C(=O)N2CCN(CC(=O)N3CCCC3)CC2)cc1,-7.2,3547,3.4,1.5,4.8,-20.0,x
CCn1cnc2c(Nc3cccc(Cl)c3)nc(C#N)nc21,12.1,3966,6.3,4.6,-9.3,-52.5,x
CCn1cc(S(=O)(=O)N2CCN(Cc3ccc(F)cc3)CC2)cn1,11.6,4143,0.0,7.8,0.1,-11.8,9.5
CCOCCc1nnc(NC(=O)COC)s1,4.8,12693,6.1,-1.3,-0.2,-6.0,8.0
O=C(NN=Cc1cc(Br)c(Br)o1)C(O)c1ccccc1 (configuration not stated),-3.3,x,-12.5,3.3,1.8,x,x
Clc1ccc2nnnc(-c3ccccc3)c2c1,x,2029,x,x,x,-1.4,3.5
Cn1c2cc(Br)sc2c2cnn(Cc3c(F)cccc3Cl)c(=O)c21,-3.3,2768,-4.5,4.2,1.6,-7.0,x
CCOc1ccc(N2C(=O)C(=Cc3ccccc3OCC(=O)OC)N(CC(=O)OC)C2=S)cc1,-2.7,x,5.6,-4.2,-4.7,x,x
Cc1nnc(-c2cnn(-c3ccccc3)c2N)n1Cc1ccncc1,8.9,20279*,7.6,6.5,-4.1,-19.5,6.8
CCN(C(=O)COC(=O)c1cccn1C)C1CCS(=O)(=O)C1 (configuration not stated),7.7,4158,-1.3,3.3,1.7,-6.8,9.6
O=C(NC(=S)N1CCCC1)c1cccc([N+](=O)[O-])c1,6.8,5406,-2.0,0.5,-1.7,-20.4,-1.5
CCc1cccc(CC)c1C(OC(C)=O)c1cccnc1 (configuration not stated),12.4,5808,-3.1,6.0,1.4,-15.2,8.0
CCOc1ccc(NC(=S)NC(=O)Cc2ccccc2)cc1,17.7,5119,18.8,-6.5,68.6,-18.0,2.0
COc1ccc(Cl)cc1NC(=S)N1CCN(C(=O)C2CCCO2)CC1 (configuration not stated),10.1,3976,4.9,2.4,10.3,-18.9,x
Cc1cccc(O)c1C,x,5564,x,3.5,8.6,-12.5,x
Cc1ccc(-c2nc(Nc3cccc(C)c3)sc2CC(=O)O)cc1,4.0,5002,1.9,12.2,6.2,-17.8,-1.8
COc1ccccc1NS(=O)(=O)c1ccc(C)c(C(=O)NCc2cccnc2)c1,4.3,3989,11.9,3.0,2.9,-12.0,x
